Compound activity: PubChem BioAssay, National Center for Advancing Translational Sciences (NCATS)
VDR inhibitor = blocks the human vitamin D receptor | P11473 | VDR-SRC2-3 peptide fluorescence polarization, 2 h | Potency, µM, without a hit: max response, negative = inhibition, usual class: inhibitors | actives 0.93% (n = 400,000) | AID 504847; active = well fitted inhibition curve with a large enough effect; inconclusive = small, poorly fitted or top-dose-only effect, or another doubt; inactive = no such curve, though single readings can be large or run the other way; note: series mostly up to about 120 µM
Target sequence (P11473 whole entry, looked up): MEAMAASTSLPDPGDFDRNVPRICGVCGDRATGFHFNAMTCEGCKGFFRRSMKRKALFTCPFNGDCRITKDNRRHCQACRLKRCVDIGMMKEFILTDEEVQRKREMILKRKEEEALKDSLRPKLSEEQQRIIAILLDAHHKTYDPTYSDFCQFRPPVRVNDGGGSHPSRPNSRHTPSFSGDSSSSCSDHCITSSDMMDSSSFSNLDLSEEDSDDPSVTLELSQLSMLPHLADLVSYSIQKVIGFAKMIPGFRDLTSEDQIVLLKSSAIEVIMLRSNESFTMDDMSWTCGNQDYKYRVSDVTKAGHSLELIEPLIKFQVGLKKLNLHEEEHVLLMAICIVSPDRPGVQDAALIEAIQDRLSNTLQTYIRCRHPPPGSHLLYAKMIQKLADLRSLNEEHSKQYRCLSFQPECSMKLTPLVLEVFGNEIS
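Compounds are added to VDR with labelled SRC2-3 coactivator peptide and held 2 h at room temperature. Inhibition of the VDR–peptide interaction is then read as a change in fluorescence polarization.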
An asterisk follows results filed as active; ? = inconclusive; & = joins results of further samples. % is set by controls: 0 for no effect and ±100 for the full control effect; potency is the fitted concentration of half-maximal effect. The list is partial; count on the stated rates, not on these rows.

SMILES	VDR inhibitor
CC(=O)NCCc1c(C)n(Cc2ccccc2)c2ccccc12	-2.7%
COc1cc(/C=C2\SC(=S)N(NC(=O)c3ccccc3O)C2=O)ccc1O	?
CCCOC(=O)c1c(NC(=O)c2cnn3c2NC(c2ccccc2)CC3C(F)(F)F)sc2c1CCCC2 (stereo not drawn)	-8.6%
CCOCCCNC(=O)Cn1nc(CC)n2c(cc3c(OC)cccc32)c1=O	4.7%
O=C(c1ccccc1)c1ccc(OCC(O)CN2CCN(S(=O)(=O)N3CCCCC3)CC2)cc1 (stereo not drawn)	-4.2%
COc1ccc(C(=O)N/N=C/c2cc3ccccc3[nH]c2=S)cc1	-2.0%
Cc1ccc(S(=O)(=O)N2CCOCC2)cc1NC(=O)CNCc1cccnc1	-25.9%
Cc1ccc(OC(=O)c2snnc2C)cc1C	-0.3%
CCN(CC)C(=O)Cn1cnc2c1c(=O)n(C)c(=O)n2C	-3.8%
Cc1ccc(C)c(NC(=O)NNC(=O)CCc2ccccc2)c1	-7.0%
O=c1[nH]c(SCc2ccccc2Cl)nc2c1CCCC2	-8.8%
O=c1ccn(-c2cccc(C(F)(F)F)c2)nc1-c1ccn(-c2ccccc2F)n1	-8.3%
O=C(NCc1ccccc1Cl)C1CCCO1 (stereo not drawn)	-9.7%
Cc1ccc2c(c1)-c1onc(C(=O)N3CCN(c4ccc(Cl)cc4)CC3)c1CO2	1.4%
CCC(C)NC(=O)c1ccccc1NC(=O)c1ccc(CSc2ccc(C)cc2)cc1 (stereo not drawn)	15.3%
COc1ccc(-c2nnn3c2nc(N2CCCC(C)C2)c2ccccc23)cc1 (stereo not drawn)	0.1%
C/C(=N/NC(=O)C1CCCCC1)c1ccc([N+](=O)[O-])cc1	-2.9%
CCN(CC)c1nc(C#N)cc(-c2ccc(OC)cc2)n1	16.8%
Cc1ccn2c(NC3CCCCC3)c(C)nc2c1	-18.1%
Cc1cc(NC(=O)CSc2nc(-c3ccccc3F)nc3c2c(=O)n(C)c(=O)n3C)no1	6.9%
CCn1c(=O)c(C(=O)NNS(=O)(=O)c2ccc(Cl)cc2)c(O)c2ccccc21	-4.3%
CC(C)c1ccc(C2NC(=O)c3c(sc4c3CCN(C)C4)N2)cc1 (stereo not drawn)	-19.7%
Nc1ccc2c(c1)nnn2-c1ccccc1	1.6%
CCCn1c(C)cc(=O)c2cc(NC(=O)c3ccccn3)ccc21	-1.2%
COc1cc(OC)cc(-c2oc(=O)c3cc(OC)c(OC)cc3c2C#CCCCO)c1	-8.1%
SMILES	VDR inhibitor
C=CCn1c(SCC(=O)Nc2sccc2C#N)nc2sc(C)c(C)c2c1=O	9.1%
CCOC(=O)Cn1c2ccccc2n2nc(CCC(=O)O)c(=O)nc12	12.4%
Cc1ccc2oc(=O)n(CCC(=O)Nc3ccc(N4CCOCC4)cc3)c2c1	0.7%
O=C(Nc1ccc2c(c1)OCO2)C1CCCN1C(=O)Nc1ccccc1 (stereo not drawn)	-27.3%
Cc1cccc(N2CCc3c2nc2ccc(Br)cc2c3N)c1	-8.0%
O=C(CNC(=O)c1ccc(Br)o1)Nc1ncccc1O	-17.2%
Cc1cc(Nc2ccc3ccccc3c2)n2ncnc2n1	-15.7%
O=C(Nc1cccc2c1C(=O)NC2=O)c1ccc(S(=O)(=O)N2CCCC2)cc1	?
Cc1cc(=O)[nH]c(N/N=C/c2cccs2)n1	11.1%
O=C(NCCC(=O)N(CCc1ccccc1)Cc1ccccc1)c1ccc([N+](=O)[O-])cc1	-15.2%
Cc1ccc(Cn2c(-n3nc(C)cc3C)nc3c2c(=O)[nH]c(=O)n3C)cc1	6.5%
O=C(NC1CCCCC1)c1cc(-c2ccc(F)cc2)on1	-12.9%
CCOC(=O)C1CCCN(S(=O)(=O)c2ccc3c(c2)C(C)(C)C(=O)N3C)C1 (stereo not drawn)	-4.1%
CSCC[C@H](NC(=O)OC(C)(C)C)C(=O)N1CCC(C(=O)N[C@@H](C)C(=O)NCc2ccc(F)cc2)CC1	-17.7%
Cc1ccc(-c2nnc(Nc3ccc(Cl)c(Cl)c3)c3ccccc23)cc1S(=O)(=O)NCCO	8.7%
N#Cc1ccccc1NC(=O)COc1ccccc1C(=O)Nc1ccccc1	5.1%
O=C(CCC(NC(=O)OCc1ccccc1)C(=O)OCc1ccccc1)NCC(=O)OCc1ccccc1 (stereo not drawn)	-14.1%
O=C(Nc1ccccc1OC(F)F)C1CCCN1C(=O)c1cccs1 (stereo not drawn)	-12.5%
NC(=O)COC(=O)c1oc2ccccc2c1CSc1ccc(Cl)cc1	11.9%
CCCOc1ccc(N2C(=O)C3ON(c4ccccc4)C(CCC)C3C2=O)cc1 (stereo not drawn)	-16.7%
O=C(CNC(=O)c1ccccc1)OC(C(=O)Nc1cc(C(F)(F)F)ccc1Cl)c1ccccc1 (stereo not drawn)	-17.1%&-14.1%&-5.2%
CCOc1ccccc1NS(=O)(=O)N(C)C	1.8%
CCN1C(=O)CC(C(=O)NC)SC1=Nc1cc(Cl)c(O)c(Cl)c1 (stereo not drawn)	-2.6%
Nc1ccc2nc(Cc3ccccc3)[nH]c2c1	12.7%
CCOC(=O)c1cc(S(=O)(=O)N2CCOCC2)cn1C	-12.1%

Nothing new here: entries from further up.
SMILES	VDR inhibitor
C=CCn1c(SCC(=O)Nc2sccc2C#N)nc2sc(C)c(C)c2c1=O	9.1%
CCOC(=O)Cn1c2ccccc2n2nc(CCC(=O)O)c(=O)nc12	12.4%
Cc1ccc2oc(=O)n(CCC(=O)Nc3ccc(N4CCOCC4)cc3)c2c1	0.7%
O=C(Nc1ccc2c(c1)OCO2)C1CCCN1C(=O)Nc1ccccc1 (stereo not drawn)	-27.3%

Other records follow.
SMILES	VDR inhibitor
Cc1ccc(CNC(=O)CCC(=O)N2Cc3ccccc3Oc3ncccc32)cc1	0.2%
O=c1c2cc(N3CCOCC3)ccc2[nH]c(=S)n1CCCN1CCCCC1	-8.4%
Cc1cc(N)n(-c2ncnc3scc(-c4ccc(Cl)cc4)c23)n1	9.5%
Cc1ccccc1Nc1ncnc2c1cnn2Cc1ccccc1	8.6%
COc1ccc(/C=C(/C#N)C(=O)Nc2ccccc2C)cc1C(=O)O	-12.5%
CCOc1ccc(S(=O)(=O)N=C(c2ccccc2)N2CCOCC2)cc1	1.1%
N/N=C(/Cc1nc2ccccc2[nH]1)c1ccc([N+](=O)[O-])cc1	?
CCNC(=O)NC(=O)C(C)Sc1nnc(COc2ccccc2Cl)o1 (stereo not drawn)	-5.0%
Cc1cccc(CCN(CC(=O)NC2CCCCC2)C(=O)c2csnn2)c1	6.0%
Cc1ccc(CCNC(=O)c2cc3cc(S(=O)(=O)N4CCCCC4)ccc3n2C)cc1	5.3%
Cc1nn2c(nc(N3CCOCC3)c3ccccc32)c1C=C(C#N)C#N	-4.3%
Cc1cccc(C(=O)Nc2cccc(OCc3cc(=O)n4cccc(C)c4n3)c2)c1	25.4%
CCn1c2ccccc2c2cc(NC(=O)c3ccccc3[N+](=O)[O-])ccc21	-11.0%
O=C(C1CCN(c2ncnc3c2nc2n3CCCCC2)CC1)N1CCN(c2ccc(F)cc2)CC1	-7.1%&21.3%
COc1ccc(CCCN2CCC(CN3CCNC(=O)C3=O)CC2)cc1OC	1.7%
COc1cc(NC(=O)[C@@H]2CCCN(S(=O)(=O)c3cccc4cccnc34)C2)cc(OC)c1OC	-9.2%
Cn1nnc(NC(=O)CSc2ccc(Cl)cc2)n1	5.7%
Cc1ccc2c(COC(=O)CC3Sc4ccccc4NC3=O)cc(=O)oc2c1C (stereo not drawn)	?
COc1ccc(CCNC(=O)CCCn2nc(C)n3ccnc3c2=O)cc1OC	3.4%
CCN1/C(=C/c2ccc3ccccc3[n+]2CCCS(=O)(=O)[O-])C=Cc2cc(C)ccc21	-4.5%
COc1ccc(CSc2ccc(-c3nc4ccccn4c3NCc3ccccc3)cc2OC)cc1	2.4%
Cn1c(CNc2nc3ccccc3n2CCN2CCCCC2)nc2ccccc21	-4.9%
O=C(NCc1ccncc1)c1cnccn1	3.3%
COc1ccc(-c2c(C(=O)O)c(C(=O)O)c3n2CCC3)cc1	-4.4%
COc1cc(OC)c(C(=O)/C=C/c2ccc(OCc3ccccc3)c(OC)c2)c(OC)c1	-0.1%

The closing 6 entries of the section before lead into the next.
SMILES	VDR inhibitor
CCN1/C(=C/c2ccc3ccccc3[n+]2CCCS(=O)(=O)[O-])C=Cc2cc(C)ccc21	-4.5%
COc1ccc(CSc2ccc(-c3nc4ccccn4c3NCc3ccccc3)cc2OC)cc1	2.4%
Cn1c(CNc2nc3ccccc3n2CCN2CCCCC2)nc2ccccc21	-4.9%
O=C(NCc1ccncc1)c1cnccn1	3.3%
COc1ccc(-c2c(C(=O)O)c(C(=O)O)c3n2CCC3)cc1	-4.4%
COc1cc(OC)c(C(=O)/C=C/c2ccc(OCc3ccccc3)c(OC)c2)c(OC)c1	-0.1%
O=C(CN1CCCC1)Nc1nnc(-c2cccs2)s1	4.0%
CCOC(=O)C(Sc1n[nH]c(N)n1)c1ccccc1 (stereo not drawn)	-7.9%
COc1cc2c(cc1OC)C(C)=NCC2	1.8%
CCN1CCN(c2ncnc3scc(-c4ccc(C)cc4)c23)CC1	-3.0%
O=C1CC2c3ccccc3C1C1C(=O)N(CCc3ccccc3)C(=O)C21 (stereo not drawn)	-4.1%
CC(=O)NC1C(=O)Nc2c1cccc2C(F)(F)F (stereo not drawn)	1.6%
O=C(CN1C(=O)NC2(CCCc3ccccc32)C1=O)c1ccccc1F (stereo not drawn)	-2.1%
CCN1C(=O)[C@H]2[C@@H](c3ccc(-c4ccc(OC)cc4)cc3)N[C@@](CC(C)C)(C(=O)OC)[C@H]2C1=O	-4.8%
CCCn1c(N)[n+](CC(=O)c2ccco2)c2ccccc21	11.0%
Cc1csc(=O)n1CC(=O)Nc1ccc(C(C)C)cc1	21.8%
COc1cccc(NC(=O)Cn2c(=O)n(CCC(=O)NCCc3ccc(Cl)cc3)c(=O)c3ccccc32)c1	9.5%
CC(=O)Nc1ccc(S(=O)(=O)NCc2ccncc2)cc1	-15.3%
Cc1ccc(NC(=O)N2CCC(c3ccccc3)C2)cc1C (stereo not drawn)	-3.1%&7.9%
Cc1ccc(-n2ncc(C(=O)NCCc3c[nH]c4ccccc34)c2C2CCN(C(=O)OC(C)(C)C)CC2)cc1C	-14.4%
Cc1ccc(S(=O)(=O)N2[C@@H](c3ccc(Br)cc3)C(C(=O)O)=CC[C@H]2c2ccc3c(c2)OCO3)cc1	-19.0%
NNC(=O)CCn1c2ccccc2c2ccccc21	0.8%
CCC1CCCCN1CCCNC(=O)c1ccc2c(c1)N(Cc1ccc(Cl)cc1)C(=O)c1ccccc1S2(=O)=O (stereo not drawn)	-11.5%
CCOC(=O)c1cc(C#N)c(N)nc1C	-1.9%
CCCn1nnc2ccccc2c1=O	-12.2%
Cc1c(C#N)c2ccccc2n1CC(=O)O	-5.3%
C#CCNC(=O)C1=C[C@H](c2csc3ccccc23)C[C@H](OCc2ccc(CO)cc2)O1	-19.9%
CC(C)NC(=O)CN(c1cccc([N+](=O)[O-])c1)S(=O)(=O)c1ccccc1	19.3%
O=C(Nc1ccc(Cl)c(NC(=O)c2cccs2)c1)c1ccco1	12.6%
CC(C)NC(=O)C1CCN(C(=O)N2CC(C)Oc3ccccc32)CC1 (stereo not drawn)	9.6%
COc1ccc(Cl)cc1-c1nc(SCC(=O)NC(C)(C)C)n[nH]1	4.7%
SMILES	VDR inhibitor
Cc1ccc(-n2nc3c(=O)n(CC(=O)NC4CCCCCC4)nc(C)c3c2C)cc1	-11.5%
CC(=O)Nc1sc(C)c(C)c1C(=O)OCC(=O)NC(C)c1ccccc1 (stereo not drawn)	6.1%
CCc1cc(-c2[nH]ncc2-c2ccc3c(c2)OCO3)c(O)cc1O	-10.9%
CCc1ccc2nc(N(CCN(C)C)C(=O)c3ccc4ncsc4c3)sc2c1	70.8µM*
Cn1cnnc1SCCC(=O)Nc1ccccc1	-4.7%
O=C(CSc1nnc(Cc2cccs2)n1Cc1ccco1)Nc1cc(Cl)cc(Cl)c1	0.4%
CCOC(=O)CCCCC(=O)c1[nH]c(=O)[nH]c1CSc1nc2ccccc2[nH]1	1.1%
O=C(/C=C/c1ccc([N+](=O)[O-])cc1)OCC(=O)N1CCOCC1	-4.9%
CCc1nc(SCc2cccnc2)[nH]c(=O)c1C	11.2%
Cc1cc(S(=O)(=O)N(Cc2ccc(C(C)(C)C)cc2)Cc2cccs2)ccc1-n1cnnn1	-4.6%
CCCC(C(=O)Nc1ccc(S(=O)(=O)Nc2nccs2)cc1)c1ccccc1 (stereo not drawn)	2.0%
Cc1oc2nc(SCCCC(=O)NCCO)nc(N)c2c1C	11.9%
COc1cccc(C(=O)Nc2ccc3c(c2)C(=O)N(CCC(=O)O)C3=O)c1	8.2%
O=C(Cn1nnc(-c2ccccc2)n1)Nc1cccc(S(=O)(=O)N2CCOCC2)c1	0.8%
CS(=O)(=O)Nc1cccc(-c2cc(Nc3ccccc3)ncn2)c1	-5.3%
Cc1ccccc1CCNC(=O)c1ccc(NC(=O)N2CC(C)Sc3ccccc32)cc1 (stereo not drawn)	-3.1%
CCOC(=O)/C(C#N)=C/Nc1ccccc1NS(=O)(=O)c1ccc2c(c1)OCCO2	?
CCOc1ccc(Nc2oc(-c3ccc(COc4ccccc4C)o3)nc2C#N)cc1	2.8%
NNC(=O)[C@H](Cc1ccccc1)NC(=O)NCCc1ccccc1	2.3%
CCOc1ccc(N(CC(=O)NCC2CCCO2)S(=O)(=O)c2ccc(Cl)cc2)cc1 (stereo not drawn)	-15.6%
c1cnc2ccc(C(c3nnnn3C3CCCCC3)N3CCCCC3)cc2c1 (stereo not drawn)	?
O=C(Oc1cccc(C(=S)N2CCCCC2)c1)c1ccccc1	-23.1%

Shown with each value named: 3 of the compounds above.
Cc1nn2c(nc(N3CCOCC3)c3ccccc32)c1C=C(C#N)C#N
  VDR inhibitor: -4.3%
Cc1cccc(C(=O)Nc2cccc(OCc3cc(=O)n4cccc(C)c4n3)c2)c1
  VDR inhibitor: 25.4%
CCn1c2ccccc2c2cc(NC(=O)c3ccccc3[N+](=O)[O-])ccc21
  VDR inhibitor: -11.0%
